From PubChem BioAssay
A1 inh – inhibitors of the anti-apoptotic protein A1, read as caspase activation. MEF A1-2A-BIM cells, Caspase-Glo 3/7 luminescence, 3 h; percent of clofoctol response, vehicle zero. caspase activation, % (no concentration beside the values). 330,000 compounds, 0.066% hits. AID 2462;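 active = over half of replicate activation scores above 10%, or exactly half above 10 with the replicate mean above 10; inconclusive = replicate mean below 10 yet half the replicates above 10; inactive = over half of replicates below 10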;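 note: wells of about 30 µL received 50 nL stock; many hits fall short of the cut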
Calb FLC – affects C. albicans growth with fluconazole | growth inhibition, % (concentration not given with the values) | AID 1979 | 300,000 compounds, 0.57% hits | C. albicans CaCi-2 (fluconazole-resistant clinical isolate) + fluconazole, Alamar Blue growth, 48 h;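 active = most replicates above 75%; inconclusive = exactly half above 75%; inactive = most below 75%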;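 note: all wells also contain fluconazole at 8 µg/ml as a sub-toxic cotreatment; 0% = median of DMSO wells and 100% = median of geldanamycin control wells; wells of about 8 µL received 7.5 nL stock; the first replicate is given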
Beta apoptosis – beta cell apoptosis inhibition. INS-1E cytokine-induced death, ATP luminescence, 48 h; percent of positive-control rescue, neutral wells zero. protection from apoptosis, % (test concentration not listed). 300,000 compounds, 0.8% hits;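 active = all replicates at 75% or more, or half of them and the mean; inconclusive = half reach 75% but not the mean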;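 note: 0% = cytokine-treated negative control wells and 100% = positive control rescue; higher means more ATP so stronger rescue from cytokine killing; wells of about 40 µL received 100 nL stock; the first replicate is given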
T cruzi inh – T. cruzi replication inhibition; T. cruzi beta-gal in NIH3T3, luminescence, 90 h; 300,000 compounds, 1.4% hits; AID 1885; inhibition, % (test concentration not listed);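 active = mean inhibition across valid replicates above about 55%, limit read from the data; inconclusive = mean below that limit but half or more replicates reach it; inactive = mean below it, under half of replicates reach it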;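 note: signal also drops with host cell toxicity which is not excluded here; 0% = plate median of DMSO wells and 100% = zero luminescence signal; higher percent means less beta-gal luminescence so fewer parasites; stock transfer was 50 nL into about 50 µL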
AF4-AF9 inh – blocks AF4 peptide binding to human AF9 | 350,000 compounds, 0.47% hits | inhibition, % at 10 µM | P42568 | AlphaScreen, biotin-AF4 peptide binding to FLAG-AF9;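 active = every replicate reaching a set inhibition limit, whatever the replicate mean, cut at about 25% in these data; inconclusive = mean inhibition reaches that limit but some replicates miss it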;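 note: 0% = plate neutral control median and 100% = total signal loss; the record names both 10 and 1 µM as test concentration; the first replicate is given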
Target sequence (P42568 whole entry, looked up): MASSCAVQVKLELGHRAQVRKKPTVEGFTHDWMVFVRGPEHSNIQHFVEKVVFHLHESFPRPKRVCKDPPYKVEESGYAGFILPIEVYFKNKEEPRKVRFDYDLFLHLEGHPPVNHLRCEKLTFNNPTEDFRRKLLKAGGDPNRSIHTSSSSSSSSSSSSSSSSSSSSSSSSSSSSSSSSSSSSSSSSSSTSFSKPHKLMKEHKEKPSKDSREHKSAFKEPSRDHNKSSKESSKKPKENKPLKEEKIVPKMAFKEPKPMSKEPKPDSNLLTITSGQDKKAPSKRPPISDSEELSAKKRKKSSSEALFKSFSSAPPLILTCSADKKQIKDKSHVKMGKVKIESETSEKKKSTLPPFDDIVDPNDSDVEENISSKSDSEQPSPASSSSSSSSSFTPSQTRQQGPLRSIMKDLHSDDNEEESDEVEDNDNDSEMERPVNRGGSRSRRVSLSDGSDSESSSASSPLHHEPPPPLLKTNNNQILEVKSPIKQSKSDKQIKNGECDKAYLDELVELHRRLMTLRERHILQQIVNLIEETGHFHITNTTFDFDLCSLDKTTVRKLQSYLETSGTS
Ecoli rRNA inh – inhibits bacterial ribosomal RNA function over humanized ribosomes. E. coli WT GFP vs humanized-ribosome RFP mutants, fluorescence, 24 h; stronger effect = lower value; DMSO median 0, no signal -100. GFP signal change (wild-type ribosome), % (test concentration not listed). 350,000 compounds, 1.6% hits. AID 720706;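 active = significant combined selectivity score with lowered wild-type GFP, culture density cut under 30%, mutant RFP and density less affected; inactive = any of these conditions unmet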; note: one replicate is shown; some compounds called inactive have numbers as strong as hits
RanGTP-Imp inh – disruptors of Ran-importin-beta complex formation – biochemical, FRET, CFP-Ran, YFP-importin-beta, homogeneous, primary screen; cell-free CFP-Ran/YFP-importin-beta FRET ratio; inhibition, % (test concentration not listed); 300,000 compounds, 1.1% hits;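 active = most replicates above 15%; inconclusive = exactly half above 15%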;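 note: 0% = DMSO wells and 100% = Ran loaded with GDP instead of GTP; wells of about 40 µL received 100 nL stock; the first replicate is given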
Vif A3G – inhibitors of Vif binding to APOBEC3G peptide, primary screen, biochemical, TR-FRET, GST-Vif 1-94, biotin-A3G peptide, dose response retest (AID 1117319). inhibition, %; hits with a dose series show IC50 in µM. 260,000 compounds, 0.57% hits. TR-FRET GST-Vif / biotin-A3G peptide binding; higher % means a stronger effect; test concentration not given here; strong numbers were not always called active;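 active = above the screen mean plus three standard deviations and confirmed in dose response; inconclusive = results disagree or hit not tested in dose response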;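 note: Vif residues 1-94 fused to GST binding biotinylated APOBEC3G peptide 110-148; 0% = full assay without inhibitor and 100% = GST in place of GST-Vif; retest series ran down from 100 µM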
Ecoli rRNA inh OD600 – second read-out of Ecoli rRNA inh, no call of its own (marks repeat the call); OD600 change, %; measured here: OD600 growth;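 optical density of the mix in the first replicate; 0 = DMSO median and -100 = no signal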
Ecoli rRNA inh RFP – second read-out of Ecoli rRNA inh, no call of its own (marks repeat the call); RFP signal change, %; measured here: RFP humanized mutant strains;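 first replicate; 0 = DMSO median and -100 = no signal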
An asterisk follows results filed as active.

How did O=C1CC(N2CCN(c3ccccc3Cl)CC2)C(=O)N1c1ccccc1 (centres undefined) do in these assays?
A1 inh: 0.1; Calb FLC: 8; Beta apoptosis: -8; T cruzi inh: 0; RanGTP-Imp inh: 5.7; Vif A3G: -6%

Results for COc1cc(O)cc2c1[C@@H]1Oc3c(ccc(O)c3CC=C(C)C)[C@@H]1CO2 ?
A1 inh: -0.7; Calb FLC: 3; Beta apoptosis: -5; T cruzi inh: 8; AF4-AF9 inh: 4.8; RanGTP-Imp inh: 3.4

How did Cc1cccc(N(CC(=O)NC2CC3CCC2C3)S(=O)(=O)c2ccccc2)c1 (centres undefined) do in these assays?
A1 inh: -1.0; Calb FLC: -2; T cruzi inh: 19; AF4-AF9 inh: 1.5; Ecoli rRNA inh: -41; RanGTP-Imp inh: 1.0; Ecoli rRNA inh OD600: -53; Ecoli rRNA inh RFP: -9.4

What do the screens show for `Cc1ccc2cc(C#N)c(SCc3nnc(-c4ccccc4[N+](=O)[O-])o3)nc2c1`?
A1 inh: 0.5; Calb FLC: -3; Beta apoptosis: 10; T cruzi inh: 0; RanGTP-Imp inh: 5.3

What do the screens show for `O=C(c1cnn2c(C(F)(F)F)cc(-c3ccco3)nc12)N1CCCc2ccccc21`?
A1 inh: -0.1; Calb FLC: -16; T cruzi inh: 11; RanGTP-Imp inh: -1.7; Vif A3G: 3%

Results for CCCCOC(=O)C1=C(C)Nc2ncnn2C1c1cc(OC)c(OC)cc1OC (centres undefined) ?
A1 inh: 0.1; Calb FLC: 9; Beta apoptosis: 4; T cruzi inh: -10; RanGTP-Imp inh: -2.3; Vif A3G: 14%

What do the screens show for `COc1ccccc1OCCCC(=O)Nc1ccc([N+](=O)[O-])cc1Br`?
A1 inh: 0.1; Calb FLC: 13; Beta apoptosis: 1; T cruzi inh: 4; AF4-AF9 inh: 1.5; Ecoli rRNA inh: 4; RanGTP-Imp inh: inconclusive; Vif A3G: -1%; Ecoli rRNA inh OD600: 0; Ecoli rRNA inh RFP: -4.7

Results for CC(C)(C)c1ccc(OCCOc2ccc(C(C)(C)C)cc2NC=O)c(NC=O)c1 ?
A1 inh: -1.2; Calb FLC: 24; T cruzi inh: 59*; AF4-AF9 inh: 3.2; Ecoli rRNA inh: -23; RanGTP-Imp inh: 1.7; Vif A3G: -10%; Ecoli rRNA inh OD600: -43; Ecoli rRNA inh RFP: -2.4

What do the screens show for `CCc1ccc2ncc(S(=O)(=O)c3ccc(C)c(C)c3)c(N3CCCC3)c2c1`?
A1 inh: -0.2; Calb FLC: inconclusive; Beta apoptosis: 2; T cruzi inh: 42; RanGTP-Imp inh: 4.9

What do the screens show for `COCCNc1nc(=S)[nH]c2cc(OC)c(OC)cc12`?
A1 inh: -0.7; Calb FLC: -4; Beta apoptosis: 1; T cruzi inh: -20; RanGTP-Imp inh: 2.1; Vif A3G: 8%

What do the screens show for `COc1cccc2sc(N(CCCN(C)C)C(=O)COc3ccc(Cl)cc3)nc12`?
A1 inh: -0.8; Calb FLC: -10; Beta apoptosis: -4; T cruzi inh: 34; AF4-AF9 inh: 9.0; Ecoli rRNA inh: 2; RanGTP-Imp inh: 2.4; Vif A3G: -5%; Ecoli rRNA inh OD600: 1; Ecoli rRNA inh RFP: 4.4

Results for CCOC(=O)[C@H]1[C@H]2COc3ccc(OC)cc3[C@@H]2N2C(=O)CN(C)C(=O)[C@@]12C ?
A1 inh: 2.4; Beta apoptosis: -3; AF4-AF9 inh: -4.6; Ecoli rRNA inh: 4; Ecoli rRNA inh OD600: 7; Ecoli rRNA inh RFP: -2.1

Results for CN(C)c1ccc(N/C=C/C(=O)C(C)(C)C)cc1 ?
A1 inh: 1.3; Calb FLC: 10; Beta apoptosis: -6; T cruzi inh: 42; RanGTP-Imp inh: 6.5; Vif A3G: inconclusive

What do the screens show for `CC(Sc1nnc2ccccn12)C(=O)Nc1ccc(N2CCOCC2)cc1` (centres undefined)?
A1 inh: inconclusive; Beta apoptosis: -7; AF4-AF9 inh: -2.1; Ecoli rRNA inh: 1; Vif A3G: 2%; Ecoli rRNA inh OD600: -3; Ecoli rRNA inh RFP: -2.6

Results for COc1ccc2[nH]c(=O)c(CN(C(C)=O)c3ccc(C)c(C)c3)cc2c1 ?
A1 inh: -0.1; Calb FLC: 0; Beta apoptosis: 5; T cruzi inh: -1; AF4-AF9 inh: -14; Ecoli rRNA inh: 2; RanGTP-Imp inh: -3.3; Ecoli rRNA inh OD600: -1; Ecoli rRNA inh RFP: 1.3

What do the screens show for `O=c1cc2c(nn1Cc1ccc(Cl)cc1)-c1ccccc1CC2`?
A1 inh: 2.0; Calb FLC: 1; Beta apoptosis: -7; T cruzi inh: 1; RanGTP-Imp inh: 0.4; Vif A3G: -6%

Results for CC1(C)Oc2ccc(/C=C/C(=O)N3CCOCC3)c(O)c2C(N2CCOCC2)C1O (centres undefined) ?
A1 inh: -0.8; Calb FLC: 2; Beta apoptosis: 3; T cruzi inh: -11; RanGTP-Imp inh: -0.9; Vif A3G: 6%

Results for CCc1ccc(/C=C2/SC(=S)N(CCC(=O)NCCCN3CCOCC3)C2=O)cc1 ?
A1 inh: 0.0; Calb FLC: -4; Beta apoptosis: -4; T cruzi inh: -11; AF4-AF9 inh: 12; Ecoli rRNA inh: -2; RanGTP-Imp inh: -2.4; Ecoli rRNA inh OD600: 7; Ecoli rRNA inh RFP: 7.3

What do the screens show for `O=C(CN(C(=O)CNC(=O)c1cccs1)c1ccc(F)cc1)NC1CCCC1`?
A1 inh: 0.6; Calb FLC: -1; Beta apoptosis: 1; T cruzi inh: 6; AF4-AF9 inh: 0.1; Ecoli rRNA inh: 5; RanGTP-Imp inh: inconclusive; Ecoli rRNA inh OD600: 6; Ecoli rRNA inh RFP: 1.2

Results for O=C(CCNS(=O)(=O)c1cccs1)NCc1ccccc1 ?
A1 inh: 1.3; Calb FLC: -3; Beta apoptosis: -5; T cruzi inh: -18; RanGTP-Imp inh: -0.3; Vif A3G: 19%

Results for COc1cc(OC)c(C2=Nc3ccc(Br)cc3C(c3ccccc3)N2CC(=O)NN)cc1OC (centres undefined) ?
A1 inh: 1.1; Calb FLC: 43; Beta apoptosis: 1; T cruzi inh: 15; AF4-AF9 inh: 0.0; Ecoli rRNA inh: -7; RanGTP-Imp inh: 1.7; Vif A3G: 11%; Ecoli rRNA inh OD600: -10; Ecoli rRNA inh RFP: 1.3

What do the screens show for `COc1ccc2nc(NCc3cccnc3)sc2c1`?
A1 inh: -2.3; Calb FLC: -6; Beta apoptosis: -6; T cruzi inh: 16; AF4-AF9 inh: -1.0; Ecoli rRNA inh: 2; RanGTP-Imp inh: 8.2; Ecoli rRNA inh OD600: 14; Ecoli rRNA inh RFP: -3.7

How did CCC(=O)Nc1ccc2c(c1)nc(CCN1CCN(c3ccccc3)CC1)n2C do in these assays?
A1 inh: 0.3; Calb FLC: -3; Beta apoptosis: -7; T cruzi inh: -9; AF4-AF9 inh: -0.9; Ecoli rRNA inh: 8; RanGTP-Imp inh: inconclusive; Vif A3G: -4%; Ecoli rRNA inh OD600: 7; Ecoli rRNA inh RFP: 5.0

How did O=C(NCC1CCCO1)c1ccc2c(c1)C(=O)N(C1CCCCC1)C2=O (centres undefined) do in these assays?
A1 inh: 0.0; Calb FLC: -12; Beta apoptosis: -3; T cruzi inh: -16; RanGTP-Imp inh: inconclusive; Vif A3G: 29%

Results for O=C1COc2ccc(C(=O)COC(=O)c3ccc(S(=O)(=O)C(F)F)cc3)cc2N1 ?
A1 inh: 0.9; Calb FLC: -10; Beta apoptosis: -3; T cruzi inh: -9; AF4-AF9 inh: -4.1; Ecoli rRNA inh: 7; RanGTP-Imp inh: -0.4; Ecoli rRNA inh OD600: 17; Ecoli rRNA inh RFP: -2.1

What do the screens show for `Oc1ccc2ccccc2c1CN1CCN(c2ccccc2F)CC1`?
Calb FLC: 8; T cruzi inh: -15; AF4-AF9 inh: 2.3; Ecoli rRNA inh: -9; RanGTP-Imp inh: 5.4; Vif A3G: -3%; Ecoli rRNA inh OD600: 0; Ecoli rRNA inh RFP: 4.0

How did COc1ccc2nc(NC(=O)c3ccoc3C)sc2c1 do in these assays?
A1 inh: -10; Calb FLC: 8; Beta apoptosis: 43; T cruzi inh: 12; AF4-AF9 inh: 3.1; Ecoli rRNA inh: 5; RanGTP-Imp inh: -1.8; Vif A3G: -1%; Ecoli rRNA inh OD600: 2; Ecoli rRNA inh RFP: 13

Results for Cc1ccc2c(c1)N(CCC(=O)NCc1cccs1)C(=O)C(C)O2 (centres undefined) ?
A1 inh: 0.1; Calb FLC: -2; Beta apoptosis: 1; T cruzi inh: -14; RanGTP-Imp inh: 3.8; Vif A3G: -2%

What do the screens show for `Cc1[nH]c2ccc(F)cc2c1CCN(Cc1ccncc1)C(=S)Nc1cccc(F)c1`?
A1 inh: -0.2; Calb FLC: 6; Beta apoptosis: -2; T cruzi inh: 43; AF4-AF9 inh: 7.3; Ecoli rRNA inh: -6; RanGTP-Imp inh: -4.6; Vif A3G: 2%; Ecoli rRNA inh OD600: -4; Ecoli rRNA inh RFP: -0.8

Results for CC(=O)Nc1ccc(S(=O)(=O)Nc2ccccc2C(=O)N2CCCCC2)cc1 ?
A1 inh: -0.5; Calb FLC: 1; Beta apoptosis: 0; T cruzi inh: -1; AF4-AF9 inh: 0.9; Ecoli rRNA inh: 2; RanGTP-Imp inh: 1.8; Vif A3G: 3%; Ecoli rRNA inh OD600: 9; Ecoli rRNA inh RFP: -0.6

What do the screens show for `Cc1ccccc1C(=O)NC(=S)NCCc1ccccc1`?
A1 inh: -0.1; Calb FLC: 10; Beta apoptosis: 1; T cruzi inh: 22; RanGTP-Imp inh: inconclusive; Vif A3G: -5%

Results for CCOc1cccc(-c2nnc(SCC(=O)Nc3cccc(OC)c3)n2N)c1 ?
Calb FLC: -17; T cruzi inh: -14; RanGTP-Imp inh: 2.1; Vif A3G: -18%

Results for CCN(CC)S(=O)(=O)c1cccc(NC(=O)CC2CCCC2)c1 ?
A1 inh: 1.1; Calb FLC: -1; Beta apoptosis: 0; T cruzi inh: -6; AF4-AF9 inh: 0.7; Ecoli rRNA inh: -6; RanGTP-Imp inh: 2.2; Ecoli rRNA inh OD600: -3; Ecoli rRNA inh RFP: 0.4

An excerpt; the hit share may differ from the screen's.
